Ba CapD inh: blocks the Bacillus anthracis CapD enzyme; 140,000 tested, 0.23% active; AID 492967; z-score (no concentration beside the values); purified CapD enzyme, fluorescence intensity read-out; active compounds read low; some hits fall short of the stated cut;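 active = z-score under -4 in either of two replicates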;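 also: stock transfer was 100 nL into about 40 µL; score is relative to mean and spread of the plate; one replicate is shown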
AID504770: growth inhibitors of E. coli YBA685 in a screen for V. cholerae RctB (chromosome II replication) inhibitors; E. coli YBA685 rctB-dependent plasmid, OD600 growth, 3 h; active compounds read low; z-score (no concentration beside the values); 130,000 tested, 0.27% active;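 active = z-score under -2 on both plates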;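 also: wells of about 30 µL received 100 nL stock; score is relative to mean and SD of the test wells; the first replicate is given; strong numbers were not always called active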
Active calls of the source: *; x = not tested or not shown.

SMILES	Ba CapD inh	AID504770
FC(F)(F)c1ccn(-c2ncnc3scc(-c4ccccc4)c23)n1	0.235	-0.55
O=C(CSc1ccccc1)Nc1ccc2[nH]c(=O)[nH]c2c1	x	3.3
CCC(=O)c1cn(Cc2ccccc2C#N)c2ccccc12	-0.055	0.8
c1ccc(-c2nnc(N3CCc4ccccc43)nc2-c2ccccc2)cc1	-0.485	0.7
Cc1ccc2c(Cl)cc(Cl)c(OCC(=O)OCC(=O)Nc3ccc4c(c3)OCO4)c2n1	x	-0.25
COc1ccc(CNC(=O)C2CCCN2)cc1OC (stereo not drawn)	x	0
Cc1ccc(C(=O)c2ccc(C)c(C)c2)cc1C	0.09	0.3
O=C1CCC(=O)N1CCSCc1cccc(C(F)(F)F)c1	-0.235	1.1
Cc1ccc(-n2[nH]c(C)c(C=Nc3ccc4nc(C)[nH]c4c3)c2=O)cc1	-2.47	x
O=S(=O)(NCc1ccc(-c2cccs2)s1)c1ccc(N2CCOCC2)nc1	10.6	2
Cn1nnn(CN2CCc3ccccc3C2)c1=S	x	1.2
OC(c1ccccc1)(c1ccccc1)C1CCN(C(=S)NCCc2ccccc2)CC1	27	0
Cc1nc(C)c(-c2ccn(C(=O)Nc3c(-c4c(Cl)cccc4Cl)noc3C)n2)s1	0.71	-0.7
O=C1Nc2ccccc2C1(O)c1c[nH]c2ccccc12 (stereo not drawn)	x	-0.3
Cc1cc(C(=O)COC(=O)c2cc(S(=O)(=O)N(C)C)ccc2N2CCCC2)c(C)n1C1CC1	x	-0.35
Cc1c(Cl)cccc1NS(=O)(=O)c1cc2c3c(c1)C(C)C(=O)N3CCC2 (stereo not drawn)	x	-0.65
COCC(=O)N(CCc1ccccc1)Cc1cc2cccc(C)c2n2nnnc12	x	0.6
O=C(O)COc1ccc(C(=O)c2ccccc2)cc1	-0.875	1.15
S=c1[nH]c2c(n1-c1ccccc1)CCCC2	x	0.2
COc1ccc2cc3cc(C(=O)NCCN4CCN(Cc5ccccc5)CC4)oc3nc2c1	73.1	0.4
Cc1ccc(N=P(N(C)C)(N(C)C)C(C)(C)C)c(C)c1	x	0.85
Cc1ccc(C2CC(=O)C=C(Nc3ncn[nH]3)C2)cc1 (stereo not drawn)	x	0.95
CCn1c(=O)cc(C(=O)OC)sc1=Nc1ccc(F)cc1	-0.585	1
COC(=O)c1cccc(NC(=O)Cc2csc(C)n2)c1	0.17	1.25
Clc1ccc(-c2nnc3sc(-c4ccc(Br)o4)nn23)cc1	1.11	-0.95
CCCNCc1nc(-c2ccc(Cl)cc2)no1	0.095	-0.2
CCOC(=O)c1ccc(N2C(=O)CSC23C(=O)Nc2ccccc23)cc1 (stereo not drawn)	0.09	x
CCc1nc2ccc(NC(C)=O)cc2c(=O)n1Cc1ccccc1	x	-0.3
Cc1oc(-c2ccccc2)nc1C(=O)OCC(=O)Nc1ccnn1C(C)C	x	0.15
CC(C)(C)C(=O)N(C1CC1)C1CCN(Cc2ccccc2)CC1	-0.41	x

Compound profiles, from the list above.
CC(C)(C)C(=O)N(C1CC1)C1CCN(Cc2ccccc2)CC1 is listed as Ba CapD inh: -0.41; AID504770: x
COC(=O)c1cccc(NC(=O)Cc2csc(C)n2)c1 is listed as Ba CapD inh: 0.17; AID504770: 1.25

(more compounds)
SMILES	Ba CapD inh	AID504770
C=CCNC(=O)c1cc2c(=O)n3cccc(C)c3nc2n(CCN2CCOCC2)c1=N	x	1.85
COc1nccc(C(F)(F)F)c1C(N)=O	0.825	-0.05
COC(=O)c1cc2cc(NS(=O)(=O)Cc3ccccc3)ccc2s1	1.25	x
CCSc1nc2ccccc2c(=O)n1CC1CCCCC1	0.13	-0.7
O=C(O)c1cnn2c(C(F)(F)F)cc(-c3ccco3)nc12	-0.975	2.45
O=C(Nc1csnc1-c1c(Cl)cccc1Cl)NN1CCCCC1	0.02	0.2
N#CCOc1nc(N2CCCCC2)nc(N2CCCCC2)n1	-0.255	1.4
COc1ccc([N+](=O)[O-])c(SC(C)C(=O)O)n1 (stereo not drawn)	-1.32	x
Cc1c(-c2ccnn2S(C)(=O)=O)sc2ccccc12	-1.04	1
Cc1cccn2c(=O)c3cc(C(=O)NCCN4CCOCC4)c(=N)n(CCCN4CCOCC4)c3nc12	10.7	1.8
COc1cc(C2Nc3cccc4cccc(c34)N2)cc(OC)c1OC(C)=O	19.5	x
COCCCNC(=S)N/N=C/c1cccc(OC)c1O	5.55	x
COC(=O)c1ccc(NC(=O)CC(C)CC(=O)O)cc1 (stereo not drawn)	0.52	0.35
COc1ccccc1N1CCN(C2=Nc3cccc4cccc2c34)CC1	x	-0.9
NC(N)=NOCC[C@H](N)C(=O)O	0.5	-0.05

Pulled one by one from the list above, two records:
SMILES	Ba CapD inh	AID504770
Cc1cccn2c(=O)c3cc(C(=O)NCCN4CCOCC4)c(=N)n(CCCN4CCOCC4)c3nc12	10.7	1.8
Cc1c(-c2ccnn2S(C)(=O)=O)sc2ccccc12	-1.04	1

The listing continues.
SMILES	Ba CapD inh	AID504770
CCOC(=O)c1c(Cc2ccc(Cl)cc2)c[nH]c1C	0.415	0
OC(c1cccs1)c1nccc2ccccc12 (stereo not drawn)	-0.1	0.1
N#Cc1c(C(F)(F)F)c2c([nH]c1=S)CCCC2	x	-0.3
Clc1ccc(-c2nn[nH]n2)cc1Cl	0.62	x
O=C(NCc1ccco1)c1ccsc1	-0.47	-0.7
CCn1c(SC(C)C#N)nnc1-c1cccs1 (stereo not drawn)	x	0.25
COc1ccc(NC(=O)COC(=O)C2CC3C=CC2C3)cc1 (stereo not drawn)	x	0.2
NC(=S)c1ncc(C(F)(F)F)cc1N1CCCC1	-0.515	0.1
S=C1NC2(CCCCCC2)NN1c1ccc(Cl)cc1	-0.235	x
Cn1ncc2c(N3CCN(c4ccccc4)CC3)ncnc21	-0.965	-0.2
FC(F)(F)c1ccc(-c2[nH]ncc2-c2nc3ccccc3o2)cc1	1.75	x
Cc1cc2nc3s/c(=C\c4cc(Cl)ccc4OCc4c(F)cccc4Cl)c(=O)n3c2cc1C	0.025	x
CC1CCCC(C)N1CCNc1nc2ccccc2c2nc(-c3ccccc3)nn12 (stereo not drawn)	-0.185	-1.35
CC12CC3CC(C)(C1)CC(C(=O)O)(C3)C2	0.125	x
Cc1cc(C)c(C#N)c(SCC(=O)NCC2CCCCC2)n1	-0.275	1.1

Structures listed so far containing a CF3 group, in the order listed:
SMILES	Ba CapD inh	AID504770
FC(F)(F)c1ccn(-c2ncnc3scc(-c4ccccc4)c23)n1	0.235	-0.55
O=C1CCC(=O)N1CCSCc1cccc(C(F)(F)F)c1	-0.235	1.1
COc1nccc(C(F)(F)F)c1C(N)=O	0.825	-0.05
O=C(O)c1cnn2c(C(F)(F)F)cc(-c3ccco3)nc12	-0.975	2.45
N#Cc1c(C(F)(F)F)c2c([nH]c1=S)CCCC2	x	-0.3
NC(=S)c1ncc(C(F)(F)F)cc1N1CCCC1	-0.515	0.1
FC(F)(F)c1ccc(-c2[nH]ncc2-c2nc3ccccc3o2)cc1	1.75	x

Going on with the list.
SMILES	Ba CapD inh	AID504770
Cc1ccc(S(=O)(=O)N2CC=C(C(=O)NCc3ccccc3)CC2)cc1	0.385	-0.1
Cc1nn(-c2ccccc2)c2sc(C(=O)NN3C(=O)c4ccccc4C3=O)cc12	0.19	-0.25
Cc1ccc(-c2cccc(NC(=O)C3C4C=CC(C4)C3C(=O)O)c2)o1 (stereo not drawn)	0.835	-0.45
COc1ccc(C(=O)CSc2nnc(C)n2Cc2ccccc2)cc1OC	x	-0.8
CCCCC(C(=O)Nc1ccccc1Cl)N1C(=O)C2C3c4ccccc4C(c4ccccc43)C2C1=O (stereo not drawn)	-0.445	x
CSc1nc2sc3c(c2c2nncn12)CCC(C(C)(C)C)C3 (stereo not drawn)	6	-0.3
O=C(O)C1CCCCC1C(=O)Nc1ccccn1 (stereo not drawn)	-0.14	0.05
O=C(O)c1cc(O)ccc1-c1ccc(O)cc1	0.87	0.75
CCC(O)(c1ccccc1)c1ccccc1N (stereo not drawn)	3.88	0.15
COc1cccc(C(c2cc3c(cc2O)OCO3)N2CCCC2)c1O (stereo not drawn)	-0.675	-1.3
Cc1cnc(C(=O)Nc2ccc(C(=O)N(C)C3CCCCC3)cc2)cn1	x	2.65
CCOC(=O)c1c(NC(=O)COc2ccc(Cl)cc2)sc(C(=O)Nc2ccccc2C)c1C	0.89	x
CCOc1nc(OCC)nc(N2CCC(C)CC2)n1	0.375	0.1
Clc1ccc(Cl)c(OCc2cc(-c3ccccc3Cl)on2)c1	-0.42	x
CCCC1C(c2ccccc2)NC(c2ccccc2)C(C)C1(C)O (stereo not drawn)	-0.36	x
COc1cc(NC(=O)C(F)(F)F)c(OC)cc1Br	x	-0.5
O=C(Nc1cc(F)ccc1F)C1(c2ccc(F)cc2)CCCC1	0.245	2.1
Cc1ccc(CS(=O)Cc2ccc(C(=O)N3CCN(Cc4ccccc4)CC3)o2)cc1 (stereo not drawn)	0.385	2
CC1(C)CC2(CC(c3ccccc3)Oc3cc(O)c(Cl)cc32)NC(=S)N1 (stereo not drawn)	-0.3	x
O=C(Nc1c(C(=O)N2CCOCC2)oc2ccccc12)c1cccc(F)c1	-1.17	0.95
O=C(OCC(=O)N(C1CCCCC1)C1CCCCC1)c1ccc(Br)o1	x	-1
O=C1CCN(C(=O)c2ccc(-c3cccc(C(F)(F)F)c3)o2)CC1	x	-0.1
O=C(Nc1ccc(N2CCOCC2)cc1)c1cccs1	-0.14	0.55
Cc1ccc(NCC(=O)N=Nc2c(O)[nH]c3ccccc23)cc1	x	1.35
CCOc1ccc2[nH]c(=O)c(CN(Cc3cccnc3)S(=O)(=O)c3ccccc3)cc2c1	x	0.3
COc1ccc(OC)c(/C=N/N2C(=O)C3C(C2=O)C2C=CC3C23CC3)c1 (stereo not drawn)	31.6	-1.45
NC(Cc1ccccc1)C(=O)O (stereo not drawn)	1.27	-0.5
O=C(OCC(=O)N1CCc2ccccc2C1)c1ccc(F)cc1Cl	0.645	-0.35
COC(=O)C1Cc2ccccc2CN1Cn1nc(-c2ccco2)n(-c2ccccc2)c1=S (stereo not drawn)	x	0
Cc1cccc(/N=C2/NC(=O)C(Cc3cccc(C(F)(F)F)c3)S2)n1 (stereo not drawn)	-0.33	-0.15
COC(=O)C1=C(C)N=c2s/c(=C\c3cc(Br)ccc3OC(C)=O)c(=O)n2C1c1ccc(OC)cc1 (stereo not drawn)	-0.08	x
Cc1nn(-c2ccccc2)c(Cl)c1/C=C/C(=O)O	x	0.6
CCOC(=O)Cc1csc(NC(=O)c2cc(Cl)sc2Cl)n1	-0.285	-0.05
COc1ccc(CN(CC(=O)NC2CCCC2)C(=O)Cn2nnc(-c3ccc(OC)cc3)n2)cc1	x	0.75
O=C1C2=C(Nc3ccccc3SC2c2cccc([N+](=O)[O-])c2)c2ccccc21 (stereo not drawn)	-0.355	x
CCC(C)N(C(=O)NC1CCCCC1)C(C)CC (stereo not drawn)	0.06	-0.95
CN(C)c1ccc(C(=S)N2CCN(C(c3ccccc3)c3ccccc3)CC2)cc1	1.55	0.7
COc1ccc(C2(CNC(=O)C(c3ccccc3)c3ccccc3)CCCC2)cc1OC	0.09	x
Cc1cccc(NC(=O)CS(=O)(=O)c2cn(C)c3ccccc23)c1	x	0.35
COCCn1c(-c2cc3ccccc3o2)csc1=Nc1ccc(OC(F)F)cc1	x	-0.05
CN(C)C(=O)c1ccc2c3c(cccc13)CC2	0.22	0.15
CC1=NOC(=O)/C1=C/c1ccc(O)cc1	-1.59	-1.9
O=C(CSC1CCCCC1)NCc1ccccc1	0.27	-0.7
Cc1ccc(NC(=O)OCCS(=O)(=O)c2ccc(C(F)(F)F)cn2)cc1	0.965	0.4
Cc1ccc(NC(=O)COC(=O)c2nc(Cl)ccc2Cl)cc1	0.51	-0.65
NC(=S)N/N=C/c1ccco1	-3.09	0.45
CCCCCn1c(=O)c2ccccc2n2c(Cn3ncc(Cl)c(Cl)c3=O)nnc12	x	-0.3
O=C(NC(=O)c1c(F)cccc1Cl)NN(Cc1c(F)cccc1Cl)c1ccccc1	-0.4	x
O=C(C1CC1)N1N=C(c2ccc(Cl)cc2)CC1(O)C(F)(F)F (stereo not drawn)	28.3	0.5
CCc1c(C)[nH]c2ccc([N+](=O)[O-])cc12	-1.17	x
COC(=O)C(C)NC(=O)C12CC3(C)CC(C)(CC(C)(C3)C1)C2 (stereo not drawn)	-0.09	0.1
COc1cccc2cc(-c3nc4ccccc4[nH]3)c(=N)oc12	0.735	-0.35
CC(c1ccco1)N(C(=O)COc1ccc(Cl)cc1)c1ccccn1 (stereo not drawn)	x	-0.4
CCC(C)NC(=O)CCn1c(=O)sc2ccccc21 (stereo not drawn)	-0.085	-0.95
Cc1cc(C)c2c(c1)CC(C)(C)c1[nH]c(-c3ccccc3)nc1-2	96	-0.25
NNC(=O)C(O)c1ccc(Cl)cc1 (stereo not drawn)	-0.055	0.95
CN1CCN(c2c(N)cccc2Cl)CC1	x	0.6
O=c1cc[nH]c2c(Cl)c(Cl)ccc12	x	-0.7
NNc1nc(NN)nc(Nc2cccc(C(F)(F)F)c2)n1	0.69	-0.55
CCn1ccnc1P(=O)(c1ccccc1)N1CCOCC1 (stereo not drawn)	0.075	0

Rewritten as labelled records: part of the list above.
NNc1nc(NN)nc(Nc2cccc(C(F)(F)F)c2)n1
  Ba CapD inh: 0.69	AID504770: -0.55

Cc1cc(C)c2c(c1)CC(C)(C)c1[nH]c(-c3ccccc3)nc1-2
  Ba CapD inh: 96	AID504770: -0.25

CN1CCN(c2c(N)cccc2Cl)CC1
  Ba CapD inh: x	AID504770: 0.6
